Compound activity as filed in PubChem.
A1 apoptosis 2: compounds inhibiting A1, read as caspase activation. MEF A1-2A-BIM cells, caspase-Glo luminescence, 3 h; percent of clofoctol response, DMSO zero. caspase activation, % (test concentration not listed). 24,000 tested, under 10 active. AID 2465; in the data active = caspase activation above about 5.9%;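 note: wells of about 30 µL received 50 nL stock; the first replicate is given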
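Test system – A1-2A-BIM-expressing MEF cells · Input – 2500 cells/well · Medium – RPMI-1640 growth medium with 10% FBS · Compound dosing – 50 nL pinned compound · Timing – 3 h compound exposure at 37 °C · Technique – Caspase-Glo luminescence (DEVD substrate) · Evaluation – Caspase-3/7 activity from luminescence increase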
Starred values were filed as active, the others as inactive. A portion of the library (hit frequency here may not be typical).

SMILES	A1 apoptosis 2
COc1ccc(C#Cc2ccc3c(c2)[C@]2(C(=O)N3)[C@H](c3ccc(O)cc3)N3[C@H](c4ccccc4)[C@H](c4ccccc4)OC(=O)[C@H]3[C@@H]2C(N)=O)cc1	0.8
Cc1noc(C)c1NC(=O)Nc1ccc2c(c1)C(=O)N([C@@H](C)CO)C[C@@H](C)[C@H](CN(C)C)OCCCC[C@H](C)O2	-1.1
C[C@@H]1CN([C@@H](C)CO)C(=O)c2cc(NC(=O)Nc3ccc4c(c3)OCO4)ccc2O[C@@H](C)CCCCO[C@H]1CN(C)C(=O)c1ccccc1	1.7
Cc1noc(C)c1NC(=O)Nc1ccc2c(c1)CC(=O)N([C@@H](C)CO)C[C@H](C)[C@H](CN(C)C(=O)Nc1ccc(F)cc1)O2	-0.5
COc1ccc(NC(=O)N(C)C[C@H]2Oc3ccc(NS(=O)(=O)c4cn(C)cn4)cc3C(=O)N([C@H](C)CO)C[C@@H]2C)cc1	-1.4
C[C@@H]1CN([C@@H](C)CO)C(=O)Cc2cc(NC(=O)Nc3cccc4ccccc34)ccc2O[C@@H]1CN(C)C(=O)Nc1cccc2ccccc12	-0.5
C[C@@H]1CN([C@H](C)CO)C(=O)Cc2cc(NC(=O)CCCN(C)C)ccc2O[C@@H]1CN(C)S(=O)(=O)c1cccs1	2.2
Cc1ccsc1/C=N/NC(=O)CCCCCCC(=O)Nc1ccccc1O	0.7
CC(C)NC(=O)Nc1cccc2c1O[C@@H](CN(C)CC1CC1)[C@H](C)CN([C@H](C)CO)C2=O	-0.9
C[C@H](CO)N1C[C@H](C)[C@@H](CN(C)Cc2ccc(C(F)(F)F)cc2)OCCCC[C@H](C)Oc2ccc(NS(C)(=O)=O)cc2C1=O	-0.2
C[C@@H]1CN([C@H](C)CO)C(=O)c2cc(NC(=O)c3ccncc3)ccc2O[C@@H](C)CCCCO[C@H]1CN(C)C(=O)c1ccncc1	-1.4
C[C@@H]1CN([C@@H](C)CO)C(=O)Cc2cc(NS(C)(=O)=O)ccc2O[C@H]1CN(C)Cc1ccc(-c2ccccc2)cc1	1.1
C[C@@H]1CN([C@H](C)CO)C(=O)c2cccc(NC(=O)Nc3ccccc3)c2O[C@@H]1CN(C)Cc1ccncc1	0.1
COc1ccc(CN(C)C[C@H]2OCCCC[C@@H](C)Oc3ccc(NS(=O)(=O)c4c(C)noc4C)cc3C(=O)N([C@@H](C)CO)C[C@@H]2C)cc1	-0.8
C[C@@H]1CN([C@@H](C)CO)C(=O)c2cccc(NS(=O)(=O)c3cn(C)cn3)c2O[C@H]1CN(C)C(=O)Nc1ccc(C(F)(F)F)cc1	1.4
CC(C)NC(=O)N(C)C[C@@H]1Oc2ccc(NC(=O)Cc3ccccc3)cc2C(=O)N([C@H](C)CO)C[C@@H]1C	-0.2
Cc1noc(C)c1NC(=O)N(C)C[C@@H]1OCCCC[C@@H](C)Oc2ccc(NC(=O)CCC(F)(F)F)cc2C(=O)N([C@@H](C)CO)C[C@H]1C	-0.8
CN(C)C(=O)[C@]1(Cc2ccccc2CN=[N+]=[N-])N=C(c2ccc(OCCCO)cc2)O[C@@H]1c1ccccc1	0.5
C[C@@H]1CN([C@H](C)CO)C(=O)c2cc(NC(=O)NC3CCCCC3)ccc2O[C@H]1CN(C)C(=O)Nc1ccc(F)cc1	0.5
C[C@@H]1CN([C@H](C)CO)C(=O)Cc2cc(NC(=O)Nc3ccc4c(c3)OCO4)ccc2O[C@@H]1CN(C)Cc1ccc(-c2ccccc2)cc1	-0.4
COc1ccc(CN(C)C[C@H]2Oc3ccc(NC(=O)Nc4ccc(OC)cc4)cc3CC(=O)N([C@H](C)CO)C[C@@H]2C)cc1	0.4
Cc1c(NC(=O)/C(C#N)=C/c2ccccc2Cl)c(=O)n(-c2ccccc2)n1C	0.6
CNC[C@H]1OCCCC[C@H](C)Oc2ccc(NC(=O)Nc3ccc(OC)cc3)cc2C(=O)N([C@H](C)CO)C[C@@H]1C	-0.6
C[C@@H]1CCCCO[C@H](CN(C)C(=O)Nc2ccc(C(F)(F)F)cc2)[C@@H](C)CN([C@H](C)CO)C(=O)c2cc(NS(=O)(=O)c3ccc(F)cc3)ccc2O1	0.7

In another format: entries from further up
> Cc1noc(C)c1NC(=O)Nc1ccc2c(c1)C(=O)N([C@@H](C)CO)C[C@@H](C)[C@H](CN(C)C)OCCCC[C@H](C)O2
- A1 apoptosis 2: -1.1

> C[C@@H]1CN([C@@H](C)CO)C(=O)c2cc(NC(=O)Nc3ccc4c(c3)OCO4)ccc2O[C@@H](C)CCCCO[C@H]1CN(C)C(=O)c1ccccc1
- A1 apoptosis 2: 1.7

Rewritten in CSV form: 4 of the compounds above.
Molecule,A1 apoptosis 2
C[C@@H]1CN([C@@H](C)CO)C(=O)c2cccc(NS(=O)(=O)c3cn(C)cn3)c2O[C@H]1CN(C)C(=O)Nc1ccc(C(F)(F)F)cc1,1.4
C[C@@H]1CN([C@@H](C)CO)C(=O)c2cc(NC(=O)Nc3ccc4c(c3)OCO4)ccc2O[C@@H](C)CCCCO[C@H]1CN(C)C(=O)c1ccccc1,1.7
COc1ccc(C#Cc2ccc3c(c2)[C@]2(C(=O)N3)[C@H](c3ccc(O)cc3)N3[C@H](c4ccccc4)[C@H](c4ccccc4)OC(=O)[C@H]3[C@@H]2C(N)=O)cc1,0.8
C[C@@H]1CN([C@@H](C)CO)C(=O)Cc2cc(NS(C)(=O)=O)ccc2O[C@H]1CN(C)Cc1ccc(-c2ccccc2)cc1,1.1

(list continues)
SMILES	A1 apoptosis 2
C[C@@H]1CN([C@@H](C)CO)C(=O)c2cc(NC(=O)Nc3ccccc3)ccc2O[C@@H](C)CCCCO[C@@H]1CN(C)C(=O)Nc1ccccc1	-1.4
C[C@@H]1CN([C@H](C)CO)C(=O)c2cc(NC(=O)Nc3ccc4c(c3)OCO4)ccc2O[C@@H](C)CCCCO[C@@H]1CN(C)C(=O)CCC(F)(F)F	0.2
Cc1noc(C)c1NC(=O)Nc1cccc2c1O[C@H](CN(C)C(=O)NC1CCCCC1)[C@@H](C)CN([C@H](C)CO)C2=O	0.8
C[C@@H]1CN([C@@H](C)CO)C(=O)c2cccc(N(C)C)c2O[C@H]1CN(C)Cc1ccc(Cl)c(Cl)c1	0.7
C[C@H]1CCCCO[C@@H](CN(C)Cc2ccc(C(F)(F)F)cc2)[C@@H](C)CN([C@@H](C)CO)C(=O)c2cc(NC(=O)CCCN(C)C)ccc2O1	0.1
CNC[C@@H]1OCCCC[C@@H](C)Oc2ccc(NS(=O)(=O)c3ccc(Cl)cc3)cc2C(=O)N([C@H](C)CO)C[C@@H]1C	-0.6
C[C@H](CO)N1C[C@H](C)[C@@H](CN(C)Cc2ccc(-c3ccccc3)cc2)Oc2c(NC(=O)C3CCCCC3)cccc2C1=O	0.5
C[C@H]1CCCCO[C@@H](CN(C)C(=O)CCC(F)(F)F)[C@@H](C)CN([C@@H](C)CO)C(=O)c2cc(NS(=O)(=O)c3ccccc3)ccc2O1	-2.2
C[C@H]1CN([C@@H](C)CO)C(=O)c2cc(NC(=O)NC3CCCCC3)ccc2O[C@H]1CN(C)Cc1ccc(C(=O)Nc2ccccc2N)cc1	2.6
COc1ccc(S(=O)(=O)Nc2cccc3c2O[C@@H](CN(C)S(=O)(=O)c2cccs2)[C@@H](C)CN([C@H](C)CO)C3=O)cc1	0.8
C[C@@H]1CN([C@@H](C)CO)C(=O)c2cccc(NC(=O)C3CC3)c2O[C@H]1CN(C)Cc1ccc(C(F)(F)F)cc1	-0.6
C#CCNC(=O)C1=C[C@@H](C2CC2)C[C@@H](OCCCCO)O1	0.8
Cc1ccc(S(=O)(=O)Nc2cccc3c2O[C@H](CN(C)Cc2ccc(C(=O)O)cc2)[C@@H](C)CN([C@@H](C)CO)C3=O)cc1	-1.7
C[C@H](CO)N1C[C@H](C)[C@H](CN(C)C(=O)NC2CCCCC2)Oc2c(NS(C)(=O)=O)cccc2C1=O	0.6
CC(C)NC(=O)N(C)C[C@@H]1Oc2ccc(NC(=O)CCC(F)(F)F)cc2CC(=O)N([C@H](C)CO)C[C@H]1C	0.6
COc1ccc(NC(=O)Nc2cccc3c2O[C@@H](CN(C)Cc2ccc(-c4ccccc4)cc2)[C@@H](C)CN([C@@H](C)CO)C3=O)cc1	-1.6
CCO[C@@H]1OC(C(=O)N2CCCC2)=C[C@H](c2ccccc2)[C@H]1CCCO	0.5
COc1ccc(NC(=O)Nc2ccc3c(c2)C(=O)N([C@H](C)CO)C[C@H](C)[C@@H](CN(C)Cc2ccccc2)OCCCC[C@@H](C)O3)cc1	-0.4
C[C@H](CO)N1C[C@H](C)[C@H](CN(C)C(=O)Nc2ccc(F)cc2)Oc2ccc(NC(=O)Cn3cnnn3)cc2CC1=O	0.2
CC(C)NC(=O)Nc1ccc2c(c1)CC(=O)N([C@H](C)CO)C[C@H](C)[C@@H](CN(C)S(C)(=O)=O)O2	-0.5
Cc1noc(C)c1NC(=O)Nc1ccc2c(c1)CC(=O)N([C@@H](C)CO)C[C@H](C)[C@@H](CN(C)S(=O)(=O)c1cn(C)cn1)O2	0.8
C[C@@H]1CCCCO[C@@H](CN(C)Cc2ccc3c(c2)OCO3)[C@H](C)CN([C@@H](C)CO)C(=O)c2cc(NC(=O)CCCN(C)C)ccc2O1	1.1
CC(C)NC(=O)Nc1ccc2c(c1)CC(=O)N([C@H](C)CO)C[C@@H](C)[C@H](CN(C)CC1CCCCC1)O2	-0.3
C[C@@H]1CN([C@@H](C)CO)C(=O)c2cc(NS(=O)(=O)c3cccs3)ccc2O[C@@H](C)CCCCO[C@H]1CN(C)Cc1ccccc1	-0.6

Among those listed so far, these have a Cl atom:
SMILES	A1 apoptosis 2
Cc1c(NC(=O)/C(C#N)=C/c2ccccc2Cl)c(=O)n(-c2ccccc2)n1C	0.6
C[C@@H]1CN([C@@H](C)CO)C(=O)c2cccc(N(C)C)c2O[C@H]1CN(C)Cc1ccc(Cl)c(Cl)c1	0.7
CNC[C@@H]1OCCCC[C@@H](C)Oc2ccc(NS(=O)(=O)c3ccc(Cl)cc3)cc2C(=O)N([C@H](C)CO)C[C@@H]1C	-0.6

The listing continues:
SMILES	A1 apoptosis 2
C[C@H](CO)N1C[C@H](C)[C@H](CN(C)Cc2ccc(-c3ccccc3)cc2)Oc2ccc(NC(=O)Cc3ccccc3)cc2C1=O	-1.0
COc1ccc(S(=O)(=O)N(C)C[C@@H]2Oc3ccc(NS(=O)(=O)c4ccccc4)cc3CC(=O)N([C@H](C)CO)C[C@@H]2C)cc1	0.3
C[C@H]1CN([C@@H](C)CO)C(=O)c2cc(NC(=O)Nc3ccc(F)cc3)ccc2O[C@H]1CN(C)Cc1ccc2c(c1)OCO2	-0.7
C=CCNC(=O)[C@H]1[C@@H]2C(=O)O[C@@H](c3ccccc3)[C@@H](c3ccccc3)N2[C@@H](c2ccc(OCCO)cc2)[C@]12C(=O)Nc1ccc(C#CCCO)cc12	0.1
Cc1noc(C)c1NC(=O)Nc1cccc2c1O[C@H](CN(C)Cc1ccc(-c3ccccc3)cc1)[C@@H](C)CN([C@H](C)CO)C2=O	-1.5
CC(C)NC(=O)N(C)C[C@@H]1Oc2ccc(NC(=O)Nc3ccc(F)cc3)cc2C(=O)N([C@H](C)CO)C[C@@H]1C	-0.8
C[C@@H]1CCCCO[C@@H](CN(C)C(=O)CCC(F)(F)F)[C@H](C)CN([C@@H](C)CO)C(=O)c2cc(NS(=O)(=O)c3ccc(Cl)cc3)ccc2O1	0.4
C[C@H](CO)N1C[C@H](C)[C@H](CN(C)S(=O)(=O)c2ccccc2)Oc2ncc(C#Cc3ccc(C(F)(F)F)cc3)cc2C1=O	1.1
Cc1noc(C)c1S(=O)(=O)Nc1ccc2c(c1)C(=O)N([C@@H](C)CO)C[C@@H](C)[C@H](CN(C)C(=O)c1ccccc1)OCCCC[C@H](C)O2	-0.2
COc1ccc(CN(C)C[C@@H]2OCCCC[C@@H](C)Oc3ccc(NS(=O)(=O)c4ccc(Cl)cc4)cc3C(=O)N([C@H](C)CO)C[C@@H]2C)cc1	0.6
C[C@@H]1CN([C@H](C)CO)C(=O)c2cccc(NC(=O)C3CCOCC3)c2O[C@@H]1CN(C)C(=O)Nc1ccc(C(F)(F)F)cc1	3.6
C[C@@H]1CN([C@@H](C)CO)C(=O)Cc2cc(NC(=O)Nc3ccc4c(c3)OCO4)ccc2O[C@@H]1CN(C)C(=O)Nc1ccccc1	0.1
C[C@@H]1CN([C@H](C)CO)C(=O)c2cc(NC(=O)NC3CCCCC3)ccc2O[C@@H]1CN(C)C(=O)Nc1ccc(F)cc1	1.9
CC(C)NC(=O)N(C)C[C@@H]1Oc2ncc(-c3ccccc3)cc2C(=O)N([C@H](C)CO)C[C@@H]1C	1.4
C[C@H](CO)N1C[C@H](C)[C@@H](CN(C)Cc2ccc3c(c2)OCO3)Oc2ccc(NS(=O)(=O)c3ccc(F)cc3)cc2C1=O	-1.0
C[C@H]1CN([C@@H](C)CO)C(=O)Cc2cc(NS(=O)(=O)c3ccccc3)ccc2O[C@H]1CN(C)S(=O)(=O)c1cccs1	-0.2
Cc1noc(C)c1NC(=O)Nc1ccc2c(c1)C(=O)N([C@@H](C)CO)C[C@@H](C)[C@@H](CN(C)C(=O)Nc1cccc3ccccc13)O2	1.3
C[C@@H]1CN([C@H](C)CO)C(=O)c2cccc(NC(=O)Nc3ccc(C(F)(F)F)cc3)c2O[C@H]1CN(C)C	-0.3
C[C@@H]1CCCCO[C@H](CN(C)Cc2ccc3c(c2)OCO3)[C@H](C)CN([C@@H](C)CO)C(=O)c2cc(NC(=O)Nc3cccc4ccccc34)ccc2O1	0.3
C[C@@H]1CCCCO[C@H](CN(C)S(=O)(=O)c2cccs2)[C@H](C)CN([C@@H](C)CO)C(=O)c2cc(NS(C)(=O)=O)ccc2O1	-1.1
C[C@@H]1CN([C@@H](C)CO)C(=O)c2cccc(NC(=O)c3nc4ccccc4s3)c2O[C@@H]1CN(C)Cc1ccc(Oc2ccccc2)cc1	-0.2
C[C@H]1CN([C@@H](C)CO)C(=O)Cc2cc(N(C)C)ccc2O[C@H]1CN(C)S(=O)(=O)c1cn(C)cn1	0.4
C[C@@H]1CN([C@H](C)CO)C(=O)c2cc(NC(=O)CCCCCC(=O)Nc3ccccc3N)ccc2O[C@H]1CN(C)S(=O)(=O)c1ccc(Cl)cc1	0.1
